From PubChem BioAssay
CtBP-E1A blk: inhibitors of CtBP/E1A interaction. AlphaScreen GST-E1A/His-CtBP binding, 1536-well; active compounds read low; control for the full effect not named in the record. activity change, % (concentration not given with the values). actives 0.49% (n = 340,000); in the data active means activity change below about -65%; inconclusive means about -30% to -65%; inactive means above about -30%; also: % is scaled to controls: 0 for no effect and ±100 for the full control effect
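Homogeneous bead-based format: GST-tagged E1A captured on glutathione donor beads, His-tagged CtBP on nickel acceptor beads; compounds precede bead addition by 2 h at 37 °C.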
TRPV1 potentiator: potentiators of human vanilloid receptor 1 (TRPV1) | Q8NER1 | TRPV1-expressing cells, Fluo-8 calcium influx, capsaicin EC20 potentiation; host cell line not named in the record; control for the full effect not named in the record | potentiation, % at 8.33 µM | actives 0.02% (n = 320,000); active means potentiation above 80%; inconclusive means 30% to 80%; inactive means below 30%; also: 0% is about no effect
Target sequence (Q8NER1 whole entry, looked up): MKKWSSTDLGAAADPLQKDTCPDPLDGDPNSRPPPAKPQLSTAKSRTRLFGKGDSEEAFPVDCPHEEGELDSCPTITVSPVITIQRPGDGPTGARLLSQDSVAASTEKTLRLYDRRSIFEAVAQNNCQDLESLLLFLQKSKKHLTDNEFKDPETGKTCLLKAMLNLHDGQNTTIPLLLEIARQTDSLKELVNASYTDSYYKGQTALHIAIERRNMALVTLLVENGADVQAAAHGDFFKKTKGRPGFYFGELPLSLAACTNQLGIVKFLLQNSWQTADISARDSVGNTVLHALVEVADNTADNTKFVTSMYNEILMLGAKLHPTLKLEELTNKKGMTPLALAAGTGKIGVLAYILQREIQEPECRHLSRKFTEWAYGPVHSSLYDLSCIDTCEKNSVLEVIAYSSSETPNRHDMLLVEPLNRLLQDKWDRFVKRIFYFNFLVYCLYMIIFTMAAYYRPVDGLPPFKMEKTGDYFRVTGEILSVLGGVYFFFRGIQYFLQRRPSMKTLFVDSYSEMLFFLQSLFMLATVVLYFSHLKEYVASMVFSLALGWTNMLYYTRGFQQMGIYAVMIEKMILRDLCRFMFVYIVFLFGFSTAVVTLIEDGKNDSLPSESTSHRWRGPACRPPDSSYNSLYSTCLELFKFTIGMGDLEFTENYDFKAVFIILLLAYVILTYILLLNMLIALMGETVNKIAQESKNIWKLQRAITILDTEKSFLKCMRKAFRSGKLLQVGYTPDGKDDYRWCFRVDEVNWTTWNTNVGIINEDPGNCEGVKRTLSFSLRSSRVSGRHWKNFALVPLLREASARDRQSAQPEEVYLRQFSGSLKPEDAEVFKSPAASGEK
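TRPV1-expressing cells were cultured overnight at 35.5C and loaded with Fluo-8 calcium dye for 40 to 90 min at room temperature. After a 10 s baseline, compound was added and calcium influx was read kinetically for 3 min (ex 480/em 520 nm).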
Sfp inh: Sfp phosphopantetheinyl transferase inhibition; Biochemical Sfp PPTase activity, qHTS; actives 3.5% (n = 310,000); Potency, µM, for the others: max response, negative = inhibition, hits mostly inhibitors; AID 1490; active = well fitted inhibition curve with a large enough effect; inconclusive = small, poorly fitted or top-dose-only effect, or another doubt; inactive = no such curve, though single readings can be large or run the other way;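 also: the enzyme is Sfp with the accession as filed and its product quenches rhodamine fluorescence; potency is read from the fitted curve at half-maximal effect; 0% = enzyme reaction without inhibitor and -100% = no enzyme wells; top concentration of the series not given in the record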
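Fluorescence-quenching assay with 15 nM Sfp, 5 uM rhodamine-CoA and 12.5 uM BHQ-2-labelled ybbR peptide in pH 7.6 Hepes/MgCl2 buffer. Enzyme was pre-incubated with compound for 15 min at room temperature. Rate was taken from the 30-min fluorescence change (525/598 nm).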
D2 PAM: positive allosteric modulators of human D2 dopamine receptor; P14416; DiscoveRx D2 beta-arrestin cells, luminescence, 90 min; 100% = 57 uM dopamine signal; potentiation, % (no concentration beside the values); actives 0.23% (n = 360,000); active = potentiation of 50% or more; inconclusive = 30% to 50%; inactive = 30% or less;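 also: compound concentration not given in the record; tested on top of an EC20 dose of dopamine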
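PathHunter beta-arrestin assay in DiscoveRx D2 cells. Compounds were added with an EC20 of dopamine (50 nM final) for 90 min at 37 deg C. Luminescence was read 1 h after detection reagent, with 57 uM dopamine as the EC100 control.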
D2 agonist: activates the human D2 dopamine receptor; DiscoveRx PathHunter D2 beta-arrestin, luminescence, 90 min; 100% = 57 uM dopamine signal; AID 624465; actives 0.084% (n = 360,000); activation, % (concentration not given with the values); P14416; in the data active = activation above about 40%; inconclusive = about 15% to 40%; inactive = below about 15%; also: compound concentration not given in the record; the text of the record calls up to 30% inactive
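Agonist mode: compounds alone added to overnight-plated D2 PathHunter cells for 90 min at 37 C, with 57 uM final dopamine (EC100) defining full response. Beta-arrestin recruitment detected by chemiluminescent reagent, read after 1 h at ambient temperature.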
PINK1 modulator: changes PINK1 expression; Potency, µM (series often up to 76.6 µM), inactives show top-dose activation (PINK1 increase), most hits filed as activators; PINK1 immunofluorescence, high-content cytometry, 24 h; actives 0.2% (n = 410,000); AID 624263; active = well fitted activation curve with a large enough effect; inconclusive = small, poorly fitted or top-dose-only effect; inactive = flat fitted curve, though single readings scatter; cell line not stated here;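 also: potency is read from the fitted curve at half-maximal effect; % of control where 0% means no effect; nearly all actives have a fitted effect of over 65% in size; a mitochondrial uncoupler was the plate control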
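Measures PINK1 amount and localization on or inside mitochondria by immunofluorescence. Stable cells get compounds at 5 concentrations for 24 hours before fixation and staining; CCCP controls included.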
Six1-Eya2 inh: inhibitors of human Six1/Eya2 interaction. activity change, % (concentration not given with the values). AlphaScreen GST-Six1/His-Eya2 binding, biochemical; active compounds read low; control for the full effect not named in the record. AID 651725. Q15475+O00167. actives 0.56% (n = 360,000); in the data active = activity change below about -65%; inconclusive = about -30% to -65%; inactive = above about -30%; also: % is scaled to controls: 0 for no effect and ±100 for the full control effect
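Compounds are tested against tagged Six1 and Eya2 proteins bridged by glutathione donor and nickel acceptor beads; after a one-hour incubation at 37 °C without light, AlphaScreen emission is recorded.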
* hit, by the source's call; ? = inconclusive; · = not tested or not shown; [ ] = remark or other dose.

SMILES	CtBP-E1A blk	TRPV1 potentiator	Sfp inh	D2 PAM	D2 agonist	PINK1 modulator	Six1-Eya2 inh
COc1cc(C(=O)N[C@@H](C)C(=O)N2CCC3(CC2)NCCc2[nH]cnc23)cc(OC)c1OC	1	7	7%	-11	4.0	-1.3%	-1
COc1ccc(/C=N/NC(=O)CC(=O)NCc2cccnc2)c(OC)c1	3	2	9%	2	0.1	-2.0%	26
COc1cc(OC)cc(C(=O)NCC2CCCN(C(=O)c3oc(C)cc3C)C2)c1 (centres undefined)	2	4	18%	0	2.4	2.7%	0
COc1cc(NC(=O)CN(C)S(=O)(=O)c2ccc(-c3ccc(=O)[nH]n3)s2)cc(OC)c1	·	13	-10%	2	1.1	1.0%	-2
Cc1cccn2c(/C=N/OCc3cccc(F)c3)c(-c3ccc(Cl)cc3)nc12	5	·	-23%	-6	-4.0	11%	-4
Cc1ccc(C(=O)NNC(=O)OC(C)(C)C)c(Cl)c1	14	6	7%	9	3.6	-0.7%	2
Cc1occc1-c1nnc(SCC(=O)NCCc2ccccc2)n1C(C)c1ccccc1 (centres undefined)	-5	8	-14%	-24	-1.7	-0.4%	-8
NC(COCc1ccccc1)c1csc(NC(=O)Nc2cccc(Cl)c2)n1 (centres undefined)	-14	·	·	9	12	-1.4%	-10
O=C(NCc1ccccc1)N(Cc1nc2ccccc2c(=O)[nH]1)C1CCCC1	-4	·	-4%	-4	-1.1	-0.8%	8
CCOC(=O)c1cccnc1SCC(=O)NC(C)CC (centres undefined)	0	1	8%	0	-2.5	4.1%[38.3 µM]	3
C#CCOCCOCCOCCNc1nc(N2CCN(C(=O)[C@H]([C@@H](C)CC)n3cc([C@@H](N)CO)nn3)CC2)nc(N2CCN(C(=O)[C@H](CCCCN)n3cc([C@@H](N)CC(C)C)nn3)CC2)n1	-22	24	16%	-5	0.5	1.5%	-18
FC(F)(F)c1cccc(Cn2nnnc2-c2cccc(C(F)(F)F)c2)c1	19	-16	26%	-17	0.8	1.2%[38.3 µM]	17
CC(C)(C)c1nnc2sc(SCCN3C(=O)c4ccccc4C3=O)nn2c1=O	1	-2	-7%	-24	-4.5	-1.1%	14
CC1(C)CC(=O)C=C(/C=C/c2ccccc2)C1	-12	-6	·	-15	-3.9	0.0%	-13
COc1ccc(C)cc1NC(=O)CSc1cccc[n+]1[O-]	·	·	·	-11	-2.3	0.4%	-4
Cc1cc(=O)oc(C)c1C(=O)NCC1CCCO1 (centres undefined)	3	4	4%	-4	-0.7	10%[38.3 µM]	0
CCOC(=O)C1=CN(Cc2cccc(-c3cccnc3)c2)S(=O)(=O)N(C)C1C (centres undefined)	-10	·	·	3	2.5	-1.3%	-1
CCN(CC)S(=O)(=O)c1ccc(N2CCCC2)c(NS(=O)(=O)c2ccc(OC)cc2)c1	-11	-1	-4%	1	0.4	4.4%	-2
Cc1ccc(S[C@@H](CCN2CC[C@H](NC(=O)OCc3ccccc3)CCC2=O)c2ccccc2)cc1	·	4	?	-4	-3.9	-0.2%	-5
COc1ccc(C(=O)N2CCCCCC2)cc1S(=O)(=O)N1CCOCC1	-1	-3	6%	-5	-1.5	1.9%	-15
Cc1ccc(OCC(=O)N2CCN(C(=O)c3ccco3)CC2)cc1	-16	16	4%	-2	-1.9	1.6%	3
CC[C@]12c3[nH]c4ccc(OC)cc4c3CCN1C(=O)C(CC(=O)NCC13CC4CC(CC(C4)C1)C3)C[C@@H]2C(=O)N1CCN(C(=O)C2CC2)CC1 (some centres undefined)	1	·	·	-5	-0.1	1.2%	-1
O=C(NCc1ccco1)c1ccccc1-c1nc(-c2ccc(F)cc2)no1	-23	-10	-5%	-1	-1.8	0.3%	-3
CC(C)(O)C#Cc1ccc(C(=O)N2CCN(C(=O)c3ccco3)CC2)cc1	6	?	9%	5	1.6	2.1%	6
Cc1cc(NC(=O)CCC2COc3ccccc3O2)no1 (centres undefined)	4	-1	-1%	12	0.1	0.7%	-5
New compounds follow
SMILES	CtBP-E1A blk	TRPV1 potentiator	Sfp inh	D2 PAM	D2 agonist	PINK1 modulator	Six1-Eya2 inh
COc1ccc(CCN2CC(C(=O)N3CCN(C(C)=O)CC3)CCC2=O)cc1 (centres undefined)	8	-5	27%	-12	-5.4	0.5%	5
Cc1ccc(S(=O)(=O)NCC(=O)NCCc2c[nH]c3ccccc23)cc1C	-3	5	8%	5	-3.8	0.3%	-7
CCOC(=O)C1=C(CSc2n[nH]c(N)n2)NC(=O)NC1C (centres undefined)	4	-25	3%	4	-0.2	3.7%[38.3 µM]	1
O=C(CCC(=O)N(CC(=O)NC1CCCC1)C1CCCCC1)Nc1ccccn1	·	1	18%	-5	-6.3	0.1%	1
CC(CO)NCC12CC3CC(CC(C3)C1)C2 (centres undefined)	10	22	23%	-6	-2.3	-0.6%	4
CN1CCN(S(=O)(=O)c2ccc3c(c2)NC(=O)C2CCCN32)CC1 (centres undefined)	-11	-1	15%	-3	-4.7	1.3%	-4
Cc1sc2nc(CSc3n[nH]c(N)n3)[nH]c(=O)c2c1C	6	-1	79µM*	-2	-1.3	1.2%	-9
COc1cc(C(O)c2nc(/C=C/c3ccccc3)cs2)ccc1F (centres undefined)	-2	·	·	-7	-1.4	7.5%	5
CC1CCC2(CC1)NC(=O)N(CC(=O)Nc1cccc(S(=O)(=O)N3CCCC3)c1)C2=O (centres undefined)	·	-4	·	6	-1.1	2.8%	-11
CCS(=O)(=O)N1CCCC(C(=O)N2CCc3ccccc3C2)C1 (centres undefined)	0	?	9%	-13	4.1	-1.9%	2
COC(=O)C(O)(CC(=O)Nc1cccc(SC)c1)C(F)(F)F (centres undefined)	28	-7	15%	-8	-0.6	6.9%[38.3 µM]	5
Cc1cc(C(=O)OCC(=O)N2CC(=O)Nc3ccccc32)c(C)n1-c1ccc(F)cc1	0	3	3%	-17	-3.5	-1.2%	-23
NCCCC[C@@H](C(=O)NCCCCCCCCCCC(=O)N1CCNCC1)n1cc(CCO)nn1	0	6	·	-9	-3.6	-0.8%	1
CC1(C(=O)NS(=O)(=O)c2cccc(Cl)c2)CCN1C(=O)C1CCCCC1 (centres undefined)	6	·	·	-4	-4.9	0.0%	4
Cc1ccccc1OCC(=O)Nc1sc(C(=O)Nc2cccc(C)c2C)c(C)c1C#N	1	25	12%	-16	1.1	?	6
Cc1ccc2cc3cc(C(=O)NCCCN4CCCC4)oc3nc2c1	-19	2	18%	-16	-1.5	-1.2%	-3
CSc1ccc(S(=O)(=O)N2CCC(C(=O)NCCN3CCOCC3)CC2)cc1	6	-8	9%	-3	-1.3	-2.1%	-4
CO/N=C(/CS(=O)(=O)c1ccc(C)cc1)c1ccc(OC)cc1	4	-10	-1%	-3	3.0	2.7%	-5
CCOC(=O)N1CCN(Cc2nc3ccc([N+](=O)[O-])cc3c(=O)n2-c2cccc(OC)c2)CC1	1	-5	-33%	1	1.1	0.1%	-2
Cc1cccc(C)c1NC(=S)N/N=C/c1ccc(C(=O)O)cc1	4	11	15%	1	-0.5	0.3%	3
Nc1nnc(CC(=O)N/N=C/c2ccc([N+](=O)[O-])cc2)s1	-10	-5	?	-3	-2.3	-1.1%	-2
CCNc1nnc(SCC(=O)N2c3ccccc3NC(=O)CC2C)s1 (centres undefined)	-10	1	·	6	0.8	-0.7%	1
Cc1nn(-c2ccccc2)c(Cl)c1C(=O)N1CCN(C)CC1	·	6	0%	-8	-2.6	0.6%	1
COC(=O)c1c(SCC(=O)NC2CCCCC2)[nH]c2ccccc2c1=O	·	8	-7%	-4	-0.4	1.3%	-10
CCn1c(C)cc(/C=C2/NC(=O)N(Cc3ccccc3F)C2=O)c1C	-16	-7	6%	3	1.7	11%	-13

The list goes on, starting with the last 4 of the part before.
SMILES	CtBP-E1A blk	TRPV1 potentiator	Sfp inh	D2 PAM	D2 agonist	PINK1 modulator	Six1-Eya2 inh
CCNc1nnc(SCC(=O)N2c3ccccc3NC(=O)CC2C)s1 (centres undefined)	-10	1	·	6	0.8	-0.7%	1
Cc1nn(-c2ccccc2)c(Cl)c1C(=O)N1CCN(C)CC1	·	6	0%	-8	-2.6	0.6%	1
COC(=O)c1c(SCC(=O)NC2CCCCC2)[nH]c2ccccc2c1=O	·	8	-7%	-4	-0.4	1.3%	-10
CCn1c(C)cc(/C=C2/NC(=O)N(Cc3ccccc3F)C2=O)c1C	-16	-7	6%	3	1.7	11%	-13
Cc1noc(C)c1CSCC(=O)Nc1nc2c(F)cc(F)cc2s1	-15	1	·	-9	3.2	1.7%	-9
NC1(C(=O)O)CSSC1	0	·	·	-25	-8.5	1.7%	-88*
Cc1ccc(S(=O)(=O)Nc2nonc2C)cc1	-13	?	12%	-10	-3.0	2.8%	4
CC1CCCC(C)N1C(=S)SCC(=O)O (centres undefined)	·	3	6%	-6	-2.5	1.6%	2
CC(c1ccc(F)cc1)n1cc(S(=O)(=O)N2CCCC2)ccc1=O (centres undefined)	6	-1	·	0	6.1	0.3%	4
O=C(/C=C/c1ccccc1)N1CCOCC1	7	-24	4%	3	1.4	0.7%	2
Cc1ccc(NC(=O)CSc2nnc(-c3cccnc3)o2)c(C)c1	-3	-5	·	-31	-2.2	-1.4%	-6
CCOC(=O)Cn1nc(C(F)F)c(Br)c1C	-2	4	4%	-9	-2.8	1.3%	9
Cc1cc(OCC(=O)NNC(=S)NC(=O)c2cccs2)ccc1Cl	9	?	14%	0	2.9	3.3%	7
COc1cc(O)oc1C=Nc1ccc(Cl)cc1	10	-14	0%	-19	-3.1	-0.5%	5
CCOc1ccc(Nc2nc(NCCN3CCOCC3)nc(OC)n2)cc1	-8	10	-16%	-2	-0.5	-2.1%	0

6 compounds already listed, arranged by the number in Sfp inh, ascending.
Compound	Sfp inh
CCOc1ccc(Nc2nc(NCCN3CCOCC3)nc(OC)n2)cc1	-16%
COc1cc(O)oc1C=Nc1ccc(Cl)cc1	0%
O=C(/C=C/c1ccccc1)N1CCOCC1	4%
CC1CCCC(C)N1C(=S)SCC(=O)O (centres undefined)	6%
Cc1ccc(S(=O)(=O)Nc2nonc2C)cc1	12%
Cc1cc(OCC(=O)NNC(=S)NC(=O)c2cccs2)ccc1Cl	14%
